GIRK2 act: activators of human GIRK2 potassium channels | P48051 | AID 1259325 | calls only for hits at 25 µM | HEK293-GIRK2 thallium flux, Thallos fluorescence | hit rate 0.05% among 63,000;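 active = among the strongest 0.2% of first-round signals and kept after retests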;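 also: first round at about 10 µM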
Target sequence (P48051 whole entry, looked up): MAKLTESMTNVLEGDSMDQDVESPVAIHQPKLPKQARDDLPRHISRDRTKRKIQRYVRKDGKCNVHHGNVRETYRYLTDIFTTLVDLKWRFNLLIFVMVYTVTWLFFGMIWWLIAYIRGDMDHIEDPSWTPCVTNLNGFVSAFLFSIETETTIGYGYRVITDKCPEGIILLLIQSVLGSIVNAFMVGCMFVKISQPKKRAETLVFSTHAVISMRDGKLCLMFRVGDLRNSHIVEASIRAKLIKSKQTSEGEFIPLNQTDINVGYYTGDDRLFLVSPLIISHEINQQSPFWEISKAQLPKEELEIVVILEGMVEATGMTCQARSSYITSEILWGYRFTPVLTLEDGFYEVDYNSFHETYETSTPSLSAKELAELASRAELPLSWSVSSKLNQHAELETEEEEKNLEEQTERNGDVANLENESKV
Calls only; i = inactive. Some of the compounds tested; count on the stated rates, not on these rows.

SMILES | GIRK2 act
Cn1cc(C(=O)NCC#CCN2CCCCC2)nn1 | i
O=C(Cc1cccs1)N1CCN(Cc2nc(-c3ccc(Cl)cc3)cs2)CC1 | i
O=C(COc1ccc(Cl)cc1)N1CCN(CCO)CC1 | i
CCCCC/C=C\C/C=C\C/C=C\C/C=C\CCCC(=O)NC(C)C(=O)O (stereo not drawn) | i
O=C(c1cccc(-n2cnnn2)c1)N1CC2CC(C1)c1cccc(=O)n1C2 (stereo not drawn) | i
O=C(Cc1ccccc1)N1CCN(CC(O)c2cccs2)CC1 (stereo not drawn) | i
COc1ccc(CNCCc2c(C)[nH]c3ccc(C)cc23)cc1 | i
CCOc1ccc(CC(=O)N2CCCSCC2CN2CCCCC2)cc1 (stereo not drawn) | i
CN(C)CC#CCNC(=O)c1cc(Br)ccc1Cl | i
CC(C)CC(N(C)C)C1(c2ccc(Cl)cc2)CCC1 (stereo not drawn) | i
CC(O)(CS(=O)(=O)c1ccc(F)cc1)C(=O)Nc1ccc(C#N)c(C(F)(F)F)c1 (stereo not drawn) | i
C=C1[C@@H](O)[C@]2(O)OC[C@]34C2[C@]2(C)C(C[C@H]3OC(=O)[C@H](O)[C@@]14O)C(C)=CC(=O)[C@H]2O (stereo partly drawn) | i
CN=C(NS(=O)(=O)c1ccc(Cl)cc1)N1CC(c2ccccc2)C(c2ccc(Cl)cc2)=N1 (stereo not drawn) | i
C=CCCC(=O)NCC#CCN(C(C)C)C(C)C | i
COc1ccc(-c2c(C(F)(F)F)oc3cc(OC(=O)N(C)C)ccc3c2=O)cc1 | i
O=C(Cc1cccs1)N1CCN(CC(O)c2ccco2)CC1 (stereo not drawn) | i
Cc1noc(C)c1CC(=O)N1CCCSCC1CN1CCCC1 (stereo not drawn) | i
c1ccc(CN2CCNCC2)cc1 | i
Cc1ccc(CC(=O)N(CCN(C)C)c2nc3ccc(S(C)(=O)=O)cc3s2)c(C)c1 | i
CO[C@H]1[C@@H](O)[C@@H](C)O[C@@H](O[C@@H]2C=C3C(OC(C)=O)CC4(O)C(CC[C@]5(C)[C@@H](C6=CC(=O)OC6)CC[C@]45O)[C@@]3(C)CC2)[C@@H]1O (stereo partly drawn) | i
O=S(=O)(NCC#CCN1CCOCC1)c1ccc(Br)s1 | i
O=C(Nc1cccc(Br)c1)c1cc2cccnc2n(Cc2ccccc2F)c1=O | i
O=C(COc1ccccc1F)N1CCN(Cc2nc3ccccc3[nH]2)CC1 | i
O=C(c1ccc(-c2c(Cl)cccc2Cl)o1)N1CC2CC(C1)c1cccc(=O)n1C2 (stereo not drawn) | i
Cc1ccccc1NC(=O)NCC(c1ccc2c(c1)CCO2)N(C)C (stereo not drawn) | i
The list goes on.
SMILES | GIRK2 act
O=C(NCC#CCN1CCCCC1)c1cccc(Cl)c1 | i
CCOc1ccc(CC(=O)N2CCN(Cc3nc4ccccc4n3C)CC2)cc1 | i
O=C(Cc1cccs1)N1CCN(Cc2nc3ccccc3n2Cc2ccccc2)CC1 | i
O=C(Cc1cccs1)N1CCN(Cc2nnnn2-c2ccc(Cl)cc2)CC1 | i
CC(C)(C)OC(=O)c1c(N)n(Cc2ccco2)c2nc3ccccc3nc12 | i
COC(=O)c1ccc(NC(=O)c2cc3cccnc3n(Cc3ccc(F)cc3)c2=O)cc1 | i
CN(C)CC#CCNC(=O)c1cccn(C)c1=O | i
O=C(c1cc(-c2ccco2)[nH]n1)N1CC2CC(C1)c1cccc(=O)n1C2 (stereo not drawn) | i
O=C(NCC#CCN1CCCC1)NCc1ccccc1 | i
CCOC(=O)NCC#CCN(C(C)C)C(C)C | i
O=C(Cn1ccc2ccccc21)N1CC2CC(C1)c1cccc(=O)n1C2 (stereo not drawn) | i
COc1ccc(CC(=O)N(CCN2CCOCC2)c2nc3ccc(SC)cc3s2)cc1OC | i
CCOc1ccccc1C(=O)NCC#CCN(C)C | i
NC(=O)c1ccccc1NC(=O)c1cc2cccnc2n(Cc2ccc(F)cc2)c1=O | i
O=C(Nc1ccc2c(c1)OCCO2)c1c(O)c2sccc2n(Cc2ccccc2)c1=O | i
O=C(c1csc(-c2ccccc2)n1)N1CC2CC(C1)c1cccc(=O)n1C2 (stereo not drawn) | i
Cc1ccccc1OCC(=O)N1CC2CC(C1)c1cccc(=O)n1C2 (stereo not drawn) | i
Cc1cc(O)cc2oc(=O)c3c(O)cc(O)cc3c12 | i
CCCCCCC(=O)O[C@H]1CC[C@H]2[C@@H]3CC(=O)C4=CC(=O)CC[C@]4(C)[C@H]3CC[C@]12C | i
COC1C(O)C(C)OC(OC2C(CO)O[C@@H](O[C@@H]3CC4CCC5C(CC[C@]6(C)[C@@H](C7=CC(=O)OC7)CC[C@]56O)[C@@]4(C)[C@H](O)C3)C(O)C2O)C1O (stereo partly drawn) | i
Cc1cccc(NC(=O)c2cccn(Cc3ccccc3C)c2=O)n1 | i
O=C(COc1ccccc1)N1CCN(CC(O)c2cccs2)CC1 (stereo not drawn) | i
O=C(Cc1cccs1)N1CCN(Cc2nc(C3CC3)cs2)CC1 | i
COc1cc2c(cc1OC)[C@@]13CCN4CC5=CCO[C@H]6CC(=O)N2[C@H]1[C@H]6[C@H]5C[C@H]43 | i
Cc1nnsc1C(=O)N1CC2CC(C1)c1cccc(=O)n1C2 (stereo not drawn) | i
(cont.)
SMILES | GIRK2 act
COC(=O)c1ccc(N2Cc3ccccc3C2=N)cc1 | i
CCCCC/C=C\C/C=C\C/C=C\C/C=C\CCCC(=O)Nc1ccc(O)cc1C | i
CN(C)c1cccc(C(=O)N2CC3CC(C2)c2cccc(=O)n2C3)c1 (stereo not drawn) | i
O=C(NC1CCCC1)c1cc2cccnc2n(Cc2ccc(F)cc2)c1=O | i
CC(=O)OC[C@]12CCC(C)=C[C@H]1O[C@@H]1[C@H](O)[C@@H](OC(C)=O)[C@@]2(C)[C@]12CO2 | i
O=C(COc1ccccc1)N1CCN(Cc2nc(-c3ccc(F)cc3)cs2)CC1 | i
Cc1cc2oc(=O)cc(CN3CC4CC(C3)c3cccc(=O)n3C4)c2cc1Cl (stereo not drawn) | i
O=S(=O)(Cc1ccccc1)NCC#CCN1CCCC1 | i
C/C=C/C(=O)NCC#CCN(C)C | i
O=C(c1ccc(-c2cc(Cl)ccc2Cl)o1)N1CC2CC(C1)c1cccc(=O)n1C2 (stereo not drawn) | i
O=C1CCSCC(C(=O)N2CCC3(CC2)OCCO3)N1 (stereo not drawn) | i
COc1cc2c(c(OC)c1OC)-c1cc3c(cc1[C@H](OC(C)=O)[C@H]1COC(=O)[C@@H]1C2)OCO3 | i
Cc1cc(C(=O)N2CC3CC(C2)c2cccc(=O)n2C3)no1 (stereo not drawn) | i
CCCCC(C)C(OC(=O)CC(CC(=O)O)C(=O)O)C(CC(C)CC(O)CCCCC(O)CC(O)C(C)N)OC(=O)CC(CC(=O)O)C(=O)O (stereo not drawn) | i
O=C(CSc1ccc(F)cc1)N1CC2CC(C1)c1cccc(=O)n1C2 (stereo not drawn) | i
CCCCCCCCCCCCCCCCSP(=O)([O-])OCC[N+](C)(C)C | i
C[C@@H]1O[C@@H](O[C@H]2[C@H](O)[C@@H](O)[C@H](O[C@@H]3C=C4CC[C@@H]5C(CC[C@]6(C)[C@@H](c7ccc(=O)oc7)CC[C@]56O)[C@@]4(C)CC3)O[C@@H]2CO)[C@H](O)[C@H](O)[C@H]1O (stereo partly drawn) | i
Cc1c(Cl)cccc1NC(=O)c1cc2cccnc2n(Cc2ccccc2)c1=O | i
Cc1cccc(OCC(=O)N2CCN(Cc3nnnn3-c3ccccc3)CC2)c1 | i
COc1ccc(/C=C2\Oc3c(ccc(OC(=O)N(C)C)c3C)C2=O)cc1OC | i
Cc1ccc(NC(=O)c2cc3cccnc3n(Cc3ccc(Cl)cc3)c2=O)cc1 | i
CCCCCC/C=C\C=C\C(CCCCCCCC(=O)OC[C@@H](COC(=O)CCCCCCC/C=C\C=C\C(CCCCC)OO)OC(=O)CCCCCCC/C=C\C=C\C(CCCCC)OO)OO (stereo partly drawn) | i
COc1ccc2nc(N(CCN3CCOCC3)C(=O)Cc3ccc(C)cc3C)sc2c1 | i
CCOc1ccc(CC(=O)N2CCN(Cc3nc(-c4ccccc4)cs3)CC2)cc1 | i
NC1=NC(=O)C(c2ccccc2)O1 (stereo not drawn) | i
Other results follow:
SMILES | GIRK2 act
CCOC(=O)c1ccc(Oc2coc3cc(OC(=O)N(C)C)ccc3c2=O)cc1 | i
CN(C)CCN(C(=O)Cc1ccccc1)c1nc2ccc(S(C)(=O)=O)cc2s1 | i
O=C(COc1ccccc1F)N1CCN(CCc2nc(-c3cccs3)cs2)CC1 | i
CCOC(=O)c1c(C)n(Cc2ccccc2)c2ccc(OCC(O)Cn3c(C)cc(C)nc3=O)cc12 (stereo not drawn) | i
COc1ccc(CC(=O)N2CCN(Cc3nc4ccccc4n3Cc3ccccc3)CC2)cc1OC | i
CCc1ccc(NC(=O)c2cc3cccnc3n(Cc3ccc(F)cc3)c2=O)cc1 | i
CN(C)CC#CCNC(=O)c1cccc(Br)c1 | i
COc1cc(OC)c(OC)cc1/C=C1\Oc2cc(OC(=O)N(C)C)ccc2C1=O | i
COc1ccc(NC(=O)c2c(O)c3sccc3n(Cc3ccccc3)c2=O)cc1 | i
O=C(NCC#CCN1CCCC1)Nc1ccc(Cl)cc1 | i
C[C@]12CC[C@H](O)CC1=CC[C@@H]1[C@@H]2CC[C@@]2(C)[C@H]1CC[C@]2(C)O | i
COCCNC(=O)NCC#CCN1CCCC1 | i
CN(C)C(=O)Oc1ccc2c(c1)O/C(=C\c1cc(Cl)cc3c1OCOC3)C2=O | i
CCCCC/C=C\C/C=C\C/C=C\C/C=C\CCCC(=O)NCc1ccc(O)c(OC)c1 | i
CCCCC/C=C\C/C=C\C/C=C\C/C=C\CCCC(=O)Nc1cccc([N+](=O)[O-])c1 | i
COc1ccc(Oc2c(C)oc3cc(OC(=O)N(C)C)ccc3c2=O)cc1 | i
O=C(COc1ccc(Cl)cc1)N1CCN(Cc2nnnn2-c2ccc(F)cc2)CC1 | i
CN(C)CC#CCNS(=O)(=O)c1cc(F)cc(F)c1 | i
CC(C)[C@H]1C(=O)O[C@H](C(C)C)C(=O)N(C)[C@@H](C(C)C)C(=O)O[C@H](C(C)C)C(=O)N(C)[C@@H](C(C)C)C(=O)O[C@H](C(C)C)C(=O)N1C | i
O=C(c1cc(=O)c2ccccc2o1)N1CC2CC(C1)c1cccc(=O)n1C2 (stereo not drawn) | i
c1cc2cc(N3CCNCC3)ccc2cn1 | i
Cc1cc(C)cc(NC(=O)c2cc3cccnc3n(Cc3ccccc3)c2=O)c1 | i
COCC(=O)NCC#CCN(C(C)C)C(C)C | i
CC(C)S(=O)(=O)c1ccc(CC(=O)N2CCN(Cc3ccsc3)CC2)cc1 | i
C[C@@H]1O[C@@H](O[C@@H]2C=C3CC[C@@H]4C(CC[C@]5(C)[C@@H](c6ccc(=O)oc6)CC[C@]45O)[C@@]3(C)CC2)[C@H](O)[C@H](O)[C@H]1O (stereo partly drawn) | i
More records
SMILES | GIRK2 act
CC12CCC(=O)C=C1CCC1C2CCC2(C)C1CCC2(C)O (stereo not drawn) | i
COc1ccc(CC(=O)N2CCN(Cc3csc(-c4ccccc4)n3)CC2)cc1OC | i
COc1ccc(CC(=O)N2CCN(CC(O)C3CC3)CC2)cc1 (stereo not drawn) | i
CC1=CC(=O)[C@@H](O)[C@@]2(C)C1C[C@H]1OC(=O)[C@H](O)[C@@]3(O)[C@@H](C)[C@@H](O)[C@H](O)C2[C@@]13C (stereo partly drawn) | i
C/C=C\C(C)=C\[C@H](C)C(=O)C[C@H](O)CC1CC(=O)NC(=O)C1 | i
O=C(NCc1ccc2c(c1)OCO2)c1c(O)c2cccnc2n(Cc2ccccc2)c1=O | i
O=c1cc(CN2CC3CC(C2)c2cccc(=O)n2C3)c2cc3c(cc2o1)CCC3 (stereo not drawn) | i
CC(=O)Nc1ccc(C(=O)NCC#CCN(C)C)cc1 | i
O=C(COc1ccccc1F)N1CCN(Cc2nc3ccccc3n2Cc2ccccc2)CC1 | i
Cc1ccc2[nH]c(C)c(CCNCc3ccccc3)c2c1 | i
CC1(C)Cc2cccc(OCC(=O)N3CCN(Cc4nnnn4-c4ccccc4)CC3)c2O1 | i
CC(=O)OC1CC(O)C(C)(C)C2CC(OC(C)=O)C3(C)C(CCC4(C)C(c5ccoc5)C(=O)C5OC543)C12C (stereo not drawn) | i
COc1cccc([C@@]2(O)CCCC[C@@H]2CN(C)C)c1 | i
Cc1csc(C(=O)NCC#CCN2CCOCC2)c1 | i
CN(CCO)CC1COCCN1C(=O)COc1ccccc1 (stereo not drawn) | i
CC(C)CCSc1nnc(N2CCN(C)CC2)s1 | i
COc1ccc(/C=C\c2cc(OC)cc(OC)c2)cc1 | i

Ordered by SMILES length (low to high): some entries from above.
SMILES | GIRK2 act
C/C=C/C(=O)NCC#CCN(C)C | i
CCOc1ccccc1C(=O)NCC#CCN(C)C | i
CC(C)CCSc1nnc(N2CCN(C)CC2)s1 | i
C=CCCC(=O)NCC#CCN(C(C)C)C(C)C | i
CC(C)CC(N(C)C)C1(c2ccc(Cl)cc2)CCC1 (stereo not drawn) | i
CCOc1ccc(CC(=O)N2CCCSCC2CN2CCCCC2)cc1 (stereo not drawn) | i
CCOC(=O)c1ccc(Oc2coc3cc(OC(=O)N(C)C)ccc3c2=O)cc1 | i
O=C(COc1ccc(Cl)cc1)N1CCN(Cc2nnnn2-c2ccc(F)cc2)CC1 | i
COc1ccc(CC(=O)N(CCN2CCOCC2)c2nc3ccc(SC)cc3s2)cc1OC | i
O=C(Nc1ccc2c(c1)OCCO2)c1c(O)c2sccc2n(Cc2ccccc2)c1=O | i
CCCCC/C=C\C/C=C\C/C=C\C/C=C\CCCC(=O)NCc1ccc(O)c(OC)c1 | i
CN=C(NS(=O)(=O)c1ccc(Cl)cc1)N1CC(c2ccccc2)C(c2ccc(Cl)cc2)=N1 (stereo not drawn) | i
C[C@]12CC[C@H](O)CC1=CC[C@@H]1[C@@H]2CC[C@@]2(C)[C@H]1CC[C@]2(C)O | i
CC1=CC(=O)[C@@H](O)[C@@]2(C)C1C[C@H]1OC(=O)[C@H](O)[C@@]3(O)[C@@H](C)[C@@H](O)[C@H](O)C2[C@@]13C (stereo partly drawn) | i

Screens deposited in PubChem BioAssay by Vanderbilt University.
